# Autofluor counter: counter-screen for toxin protease inhibitors: compound fluorescence. AID 624483. 360,000 tested, 3.1% active. compound autofluorescence counterscreen, microsphere flow cytometry; stronger effect = higher value. fluorescence intensity (concentration not given with the values);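 active means at least 3 SD above the mean of all compounds, about 16000 in these data; inconclusive means too few beads counted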;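 further: 100 nL of 1 mM stock went into each well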
# BJeLR viability: MLPCN primary cell-based screen for lethality selective to Ras in HRASV12 cells | AID 1554, 2009 | BJeLR (HRASV12) viability, CellTiter-Glo ATP luminescence, 48 h; reference of the scale not given here | inhibition, % (no concentration beside the values) | 300,000 tested, 0.17% active;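 active means replicate mean above 50%; inconclusive means above 50% but judged a plate artefact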;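 further: 50 nL library stock added to about 25 µL; numbers are from one replicate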
# Mtb hypoxia rep: PubChem AID 1159583; M. tuberculosis hypoxia-regulated fluorescent reporter, fluorescence; fluorescence inhibition, % (concentration not given with the values); 300,000 tested, 0.1% active;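 active means 35 to 45% if threefold the growth effect, above 45% if 1.5-fold the growth effect; inactive means the rest, general growth blockers included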;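 further: wells of about 50 µL received 100 nL stock; 0% = vehicle wells and 100% = reference inhibitor wells; whole bacteria with a GFP reporter of the hypoxia response; strong numbers were not always called active; many hits fall short of the cut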
# ugtP null kill: growth inhibition of ugtP-null S. aureus, primary screen, RN4220 ugtP deletion, OD600; 16 h; some inactives read as strong as hits; growth inhibition, % (no concentration beside the values); 330,000 tested, 0.54% active; AID 1259309, 2017;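 active means z-score under -3 and OD600 up to 0.15 on both plates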;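 further: plate controls were untreated wells for no effect and antibiotic for full effect; wells of about 80 µL received 100 nL stock; the first replicate is given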
# RN4220 kill: growth inhibition of S. aureus RN4220, primary screen, OD600; 16 h; inhibition, % (test concentration not listed); 330,000 tested, 0.33% active; AID 1259311, 2017;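 active means z-score of -3 or lower and OD600 up to 0.18 on both plates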;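 further: plate controls were untreated cells for no effect and reference antibiotic for full effect; stock transfer was 100 nL into about 80 µL; one replicate is shown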
# PrP UTR inh: inhibition of PrP 5' UTR reporter expression; 340,000 tested, 0.35% active; inhibition, % (test concentration not listed); AID 488862, 2010; cell-based PrP 5' UTR mRNA reporter, plate reader;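 active means every replicate at 50% or more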;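 further: 0 = median of the neutral control wells; tested in H4 reporter cells; numbers are from one replicate; inactives centre near -14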
# Mtb hypoxia rep growth: second read-out of Mtb hypoxia rep, no call of its own (marks repeat the call); growth inhibition, %; measured here: M. tuberculosis growth (absorbance);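 0% = vehicle and 100% = reference antibiotic; read after six days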
# Numbers without * were called inactive; ? = inconclusive; / = no result given. Not a hit list; overall some 4% were active at least once.
# Second line of a record – Autofluor counter	BJeLR viability	Mtb hypoxia rep	Mtb hypoxia rep growth	ugtP null kill	RN4220 kill	PrP UTR inh
- CCCCN1C(=O)c2ccc(C(=O)Nc3cccnc3)cc2C1=O
  10861	-1	-3	-6	-4	-1.0	-10
- COc1ccc(NC(=O)CN2C(=O)CC(C)(C)S(=O)(=O)c3ccccc32)cc1
  5669	-6	/	/	5	4.1	-10
- S=c1[nH]nc2c3c4c(sc3ncn12)CCCC4
  2954	6	2	9	-20	13	-15
- CCOc1cc(C=NNC(=O)COc2ccc(C)cc2)ccc1OC(=O)c1cccs1
  /	/	-3	7	-22	-8.6	/
- C=CCn1c(C(C)NC(=O)CC)nc2ccccc21 (stereo not drawn)
  6633	-7	8	8	10	3.8	-16
- COC(=O)C1=C(C)OC(N)=C(C#N)C1c1cc2cccc(C)c2nc1Cl (stereo not drawn)
  /	-4	8	2	8	8.2	/
- CC1(C)C(C=C(Cl)Cl)C1C(=O)Nc1ccc([N+](=O)[O-])cc1 (stereo not drawn)
  /	/	5	2	94*	87*	/
- C=CCn1c(SCC(=O)N(CCO)CCO)nc2sc3c(c2c1=O)CCC3
  3425	-17	-3	2	4	2.2	-17
- CC(C)S(=O)(=O)C1=NSC2=NC(=O)/C(=C\c3ccc(-c4cccc(C(=O)O)c4)o3)C(=N)N21
  3220	/	12	8	4	6.4	2
- CCCOc1ccc(CN2CCOCC2)cc1OC
  3469	-7	5	1	0	-0.3	-15
- Oc1ccc(C=NNc2nc(-c3ccc(Cl)cc3)cc(C(F)(F)F)n2)cc1
  /	/	-5	-3	-4	22	/
- CC(C)=CCC[C@](C)(O)C1CC[C@]2(C)C1C(O)CC1[C@@]3(C)CCC(OC4OC(CO)C(O)C(O)C4OC4OC(CO)C(O)C(O)C4O)C(C)(C)C3CC[C@]12C (stereo partly drawn)
  /	/	6	9	-22	2.4	/
- CCNC(=O)c1cccc(NC(=O)CN2C(=O)NC3(CCCCC3)C2=O)c1
  6367	/	4	-1	1	1.7	3
- O=C(CCN1C(=O)C2C3C=CC(C3)C2C1=O)Nc1c(F)cc(F)cc1Br (stereo not drawn)
  3611	-3	/	/	-7	1.3	24
- COCC(=O)Nc1nnc(Cc2ccc(OC)c(OC)c2)s1
  9449	-2	1	1	3	1.2	-19
- COc1ccc(N(CC(=O)NC(C)c2ccccc2)S(=O)(=O)c2ccc(C)cc2)cc1 (stereo not drawn)
  5376	-6	-4	2	7	2.2	-2
- CC(OC(=O)c1cccs1)C(=O)NCc1ccc2c(c1)OCO2 (stereo not drawn)
  9496	-5	-4	4	-4	4.5	-9
- O=C(COC(=O)/C=C/c1ccc(OC(F)F)cc1)Nc1ccc(S(=O)(=O)N2CCCC2)cc1
  2603	-15	17	4	10	0.3	-13
- Cc1cc(NC(=O)COC(=O)C2=COCCO2)c([N+](=O)[O-])cc1C
  3919	-11	7	5	7	1.0	-16
- O=C(NCCc1ccccc1)/C(=C\c1ccccc1)NC(=O)c1ccco1
  5826	0	12	1	7	2.0	-12
- COc1ccccc1CNC(=O)COC(=O)c1cc([N+](=O)[O-])ccc1N1CCOCC1
  5724	-11	1	2	-2	0.5	6
- CCN(CC)S(=O)(=O)c1ccc2c3c(cccc13)C(=O)S2
  10874	-3	9	7	-3	5.6	-13
- CCn1c(SCC(=O)Nc2cccc(C)c2)nc2c(c1=O)SC(C)C2 (stereo not drawn)
  5736	12	3	4	3	4.6	0
- Cc1cc(Cl)ccc1-n1c(-c2cccnc2)n[nH]c1=S
  4310	-1	-6	-3	6	2.4	-14
- COc1ccc(O)c(C(=O)c2cnn(C(=O)c3cccc(S(=O)(=O)N4CCOCC4)c3)c2)c1
  4016	-7	5	8	-1	17	-9
- Cc1nc(-c2cccc(NC(=O)c3ccco3)c2)cs1
  7509	-8	8	13	1	4.0	-33
- Cn1cnnc1SCC(=O)Nc1ccc(Cl)cn1
  3696	6	4	2	3	2.3	-11
- COc1ccc(Cn2nnnc2CN(Cc2cc3cccc(C)c3[nH]c2=O)C2CCCC2)cc1
  11025	4	-4	-2	-2	-2.4	-3
- CC(=NN(c1ccccc1)c1ccccc1)c1ccc(O)cc1
  /	/	-5	-3	32	8.7	/
- CCOc1ccc(-c2ccc(/C=C3/C(=N)N4C(C)=CSC4=NC3=O)o2)c([N+](=O)[O-])c1
  7853	-16	5	10	100*	11	-14

# 3 entries from above, as comma-separated lines:
mol,Autofluor counter,BJeLR viability,Mtb hypoxia rep,Mtb hypoxia rep growth,ugtP null kill,RN4220 kill,PrP UTR inh
O=C(COC(=O)/C=C/c1ccc(OC(F)F)cc1)Nc1ccc(S(=O)(=O)N2CCCC2)cc1,2603,-15,17,4,10,0.3,-13
Cc1cc(NC(=O)COC(=O)C2=COCCO2)c([N+](=O)[O-])cc1C,3919,-11,7,5,7,1.0,-16
O=C(NCCc1ccccc1)/C(=C\c1ccccc1)NC(=O)c1ccco1,5826,0,12,1,7,2.0,-12

# Next compounds follow.
# Second line of a record – Autofluor counter	BJeLR viability	Mtb hypoxia rep	Mtb hypoxia rep growth	ugtP null kill	RN4220 kill	PrP UTR inh
- CC(SCC(=O)NC12CC3CC(CC(C3)C1)C2)C(=O)O (stereo not drawn)
  6832	-6	2	1	8	5.3	-9
- CC1CC(C)CN(S(=O)(=O)c2ccc(C(=O)NNC(=O)c3ccccc3F)cc2)C1 (stereo not drawn)
  4103	/	0	0	1	4.4	-30
- O=C(Cn1cnc2c(cnn2-c2ccccc2)c1=O)NC1CCCC1
  5689	4	3	3	8	1.3	-10
- COC(=O)c1sc(NC(=O)/C=C/c2ccc(C)cc2)nc1C
  2499	-1	/	/	/	/	-32
- O=C(NN=Cc1cccnc1)c1cccc(NC(=O)c2cccc(Br)c2)c1
  /	/	4	10	10	-1.1	/
- Cc1ccnc(NC(=O)c2ccc(Cl)c(NC(=O)CCc3ccccc3)c2)c1
  /	-2	-6	0	3	1.3	/
- CCOc1ccc(NC(C)c2cc(Cl)ccc2O)cc1 (stereo not drawn)
  4563	2	/	/	2	-0.8	-10
- CCOC(=O)c1[nH]c2ccc(OC)cc2c1NC(=O)CCN1CCN(Cc2ccccc2)CC1
  4279	0	12	13	1	-2.7	1
- O=C(c1ccc(=O)[nH]c1)N(Cc1ccco1)C1(C(=O)NC2CCCC2)CCCCC1
  2786	4	5	8	3	2.5	-24
- O=C(CSc1nnc(SCc2ccccc2)s1)N/N=C/c1ccc(C(=O)O)cc1
  3365	-11	/	/	/	/	-11
- CCOc1cc(C2NC(=S)NC(C)=C2C(=O)Nc2ccccc2)ccc1O (stereo not drawn)
  5655	9	10	4	9	4.5	-36
- CC(Sc1n[nH]c(N)n1)c1nc2scc(-c3cccs3)c2c(=O)[nH]1 (stereo not drawn)
  2415	5	/	/	-3	0.7	-39
- O=S(=O)(Nc1cccc(-n2cnnn2)c1)c1ccccc1F
  5811	-3	16	-3	9	4.6	-13
- O=C(Cn1c(NCCCO)nc2ccccc21)c1ccc(F)cc1
  4150	-6	/	/	/	/	-22
- CC(Oc1cccc(Cl)c1)C(=O)Nc1ccc(S(=O)(=O)NC2=NCCCCC2)cc1 (stereo not drawn)
  4414	12	4	6	15	0.9	-32
- CC(C)c1ccc(S(=O)(=O)c2cn(Cc3ccc(F)cc3)c3cc4c(cc3c2=O)OCO4)cc1
  /	-12	10	7	1	1.8	/
- COCCN1CCN(C(=O)C2CCC(=O)N(CCCc3ccccc3)C2)CC1 (stereo not drawn)
  6043	-12	4	0	5	3.3	-14
- Cc1noc(C)c1C(=O)NC(C)C1CCCO1 (stereo not drawn)
  11093	1	4	6	8	2.6	1
- CCOC(=O)C1=C(CSc2nc(-c3ccncc3)ccc2C#N)OC(N)=C(C#N)C1c1cccnc1 (stereo not drawn)
  3722	0	/	/	5	1.3	-26
- CN(c1ccc(C(=O)N2CCOCC2)cc1)S(=O)(=O)c1ccc(Cl)cc1
  4729	2	3	2	12	5.0	1
- O=C(CCCCn1c(=O)[nH]c2ccsc2c1=O)NCC1CCCO1 (stereo not drawn)
  4153	-2	12	4	-1	2.1	-37
- CCCn1nc(Oc2nc(N(C)C)nc(N(C)C)n2)ccc1=O
  3661	-2	16	-1	3	5.0	-3
- C[N+]1(C)C2CCC1CC(OC(=O)c1c[nH]c3ccccc13)C2 (stereo not drawn)
  5595	/	-3	4	3	8.8	-14
- CC(=O)Nc1ccc(/C=N/NC(=O)CCN2CCN(c3ccccc3)CC2)cc1
  4352	-2	/	/	/	/	-17
- CCN(C(=O)c1cn(C)c(=O)c2cc(OC)c(OC)cc12)c1ccccc1C
  4563	/	/	/	-3	0.3	-26
- Cc1onc(-c2ccccc2Cl)c1C(=O)Nc1cc(=O)n(C)c(=O)n1C
  3634	3	/	/	-3	2.2	-14
- O=C(CSCc1ccc(Cl)cc1)c1ccco1
  /	-5	/	/	10	4.7	/
- CNC(=O)n1ccc(C(=O)N2CCCCC2)n1
  4318	-4	4	4	8	1.2	-9
- CCCN(CC(=O)Nc1ccccc1C)C(=O)CCl
  3945	-8	35*	21*	3	8.0	-35
- C=CCN=c1scc(C)n1N=Cc1ccc(O)c(O)c1
  /	/	3	-4	-9	2.3	/
- CCOc1ccc(CNC(c2ccccc2)c2ccccc2)cc1
  ?	6	12	22	25	-0.8	-12
- O=C(c1ccccc1)N1CCN(c2ncccn2)CC1
  4331	-1	6	2	7	4.1	-7
- O=C(COC(=O)/C=C/c1ccc([N+](=O)[O-])cc1)Nc1ccc(F)cc1
  8851	/	11	0	0	4.7	-7
- COc1cc(NC(=O)c2cc3ccccc3cc2O)c(OC)cc1Cl
  3084	15	9	2	4	-2.4	/
- CNc1ccc(Oc2c(F)c(F)nc(F)c2F)cc1
  3529	2	2	3	-1	0.9	-13
- COc1cc(CN2CCCN(C)CC2)c([N+](=O)[O-])cc1OC
  4245	3	-4	13	1	0.0	-12
- COc1ccc(C)c2sc(NC(=O)C3CC3)nc12
  4249	-1	0	4	-5	6.2	-2
- CCc1nnc(NS(=O)(=O)c2ccc(NC(=O)/C=C/c3ccccc3Cl)cc2)s1
  4886	-1	7	12	14	5.3	-47
- Cc1ccc(C(=O)Nc2ccc3c(c2)nc(CCNC(=O)c2ccco2)n3C)cc1
  5112	14	-1	3	5	-2.1	-86
- Cc1nnc(N/N=C\c2ccc(-c3cccc(C(=O)O)c3)o2)n1N
  4130	-9	/	/	/	/	-24
- Cc1cc(C)c2c(-n3cccc3)n[nH]c2n1
  2186	-3	/	/	4	5.9	-26
- CCOC(=O)C1CCCN(C(=O)c2cccc3ccccc23)C1 (stereo not drawn)
  6268	-8	3	0	1	6.2	-11
- COCCCNC(=O)c1cc2c(s1)CS(=O)(=O)C2
  9174	4	1	7	7	1.4	-32
- N#CC1(C#N)CC(C=O)=C(N)C1(C#N)CC(=O)C12CC3CC(CC(C3)C1)C2 (stereo not drawn)
  2482	9	11	2	9	16	-9
- CC(=O)Nc1ccc(C(=O)OCC(=O)NCc2ccc(Cl)cc2)cc1
  /	7	9	2	-1	1.4	/
- CC1(C)CC(=O)c2c(noc2-c2ccccc2)C1
  3401	1	4	5	0	2.8	-19
- COc1ccc(NC(=O)CSCC(=O)Nc2ccc(S(=O)(=O)N3CCCC3)cc2)cc1
  5509	-3	5	9	1	4.1	-6
- O=C(COc1ncnc2cc(Cl)ccc12)c1ccccc1
  3754	10	5	3	4	9.7	-38
- CN(CC(=O)Nc1ccc(F)cc1)C(=O)CSc1nnc(Cc2ccccc2)o1
  3564	/	10	5	2	4.0	-14
- COc1cc(N2CCOCC2)ccc1C=C1C(=O)NC(=O)NC1=O
  2662	1	/	/	/	/	-34
- COc1ccc(C2CC(c3ccco3)n3ncnc3N2)cc1 (stereo not drawn)
  4732	3	/	/	2	3.6	-10
- COCCNC(=O)c1ccc(NC(C)=O)cc1
  3098	-4	/	/	8	4.7	-1
- CCOC(=O)c1c(C)nc2sc(C(=O)Nc3ccc(C(C)=O)cc3)c(N)c2c1-c1ccc(OC)cc1
  2413	-7	6	-3	-5	-13	-11
- Cc1cc(NC(=O)c2cnccn2)no1
  /	-2	7	3	1	1.8	/
- CC(C)(CNC(=O)CNC(=O)c1ccccc1F)N1CCOCC1
  8444	/	4	1	5	1.2	-7

# Assay outcomes (PubChem BioAssay)
